Screens deposited in PubChem by several laboratories.
rRNA inh HTS: reduced GFP signal of wild-type E. coli, primary screen, bacterial rRNA inhibitor project, GFP/RFP fluorescence, OD600, single point | GFP signal change (wild-type ribosome), % (no concentration beside the values) | actives 1.6% (n = 350,000) | E. coli WT GFP vs humanized-ribosome RFP mutants, 24 h; active compounds read low; DMSO median 0, no signal -100;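 active means significant combined selectivity score with lowered wild-type GFP, culture density cut under 30%, mutant RFP and density less affected; inactive means any of these conditions unmet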; further: one replicate is shown; some compounds called inactive have numbers as strong as hits
ALR inh: inhibitors of human ALR sulfhydryl oxidase, primary screen, biochemical, H2O2 detection, HRP-luminol luminescence, single point | FAD-linked sulfhydryl oxidase ALR (Homo sapiens), P55789 | purified ALR, DTT oxidation | inhibition, % (concentration not given with the values) | actives 3.8% (n = 290,000);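 active means mean and each replicate at 75% or more; inconclusive means only one of the two met; inactive means neither met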;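 further: stock transfer was 7.5 nL into about 7.5 µL; 0% = neutral wells and 100% = wells with inactivated enzyme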
Target sequence (P55789 whole entry, looked up): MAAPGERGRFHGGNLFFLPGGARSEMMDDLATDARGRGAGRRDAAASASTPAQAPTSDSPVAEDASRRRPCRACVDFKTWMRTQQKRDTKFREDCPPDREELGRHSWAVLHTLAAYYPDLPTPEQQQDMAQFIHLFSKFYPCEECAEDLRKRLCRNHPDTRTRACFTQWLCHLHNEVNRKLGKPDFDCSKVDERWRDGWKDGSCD
FGF22 binding: binders of human FGF22 protein, primary screen, FGF22 synaptogenesis inhibitor project, biophysical, thermal shift, single point. recombinant FGF22 thermal shift, SYPRO orange fluorescence; percent of sucrose octasulfate shift, DMSO zero. calls only at 9.99 µM. actives 1.5% (n = 340,000). AID 651658, 2012;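 active means melting point raised past a set limit in the mean and every replicate; inconclusive means no clear call; three in four hits are not shown here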
Target sequence (Q9HCT0 whole entry, looked up): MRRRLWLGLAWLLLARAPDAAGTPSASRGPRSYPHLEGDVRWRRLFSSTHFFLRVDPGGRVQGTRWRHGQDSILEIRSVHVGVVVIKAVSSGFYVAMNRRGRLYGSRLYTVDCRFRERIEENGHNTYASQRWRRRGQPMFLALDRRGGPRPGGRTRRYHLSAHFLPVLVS
AF4-AF9 inh: inhibitors of AF4 peptide binding to AF9, primary screen, biochemical, AlphaScreen, biotin-AF4 peptide, FLAG-AF9, single point; inhibition, % at 10 µM; actives 0.47% (n = 350,000);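 active means every replicate reaching a set inhibition limit, whatever the replicate mean, cut at about 25% in these data; inconclusive means mean inhibition reaches that limit but some replicates miss it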;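 further: 0% = plate neutral control median and 100% = total signal loss; the record names both 10 and 1 µM as test concentration; the first replicate is given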
Ecoli growth: E. coli growth inhibition, primary screen, OD600 | Escherichia coli growth, 23 h; active compounds read low | OD600 absorbance (concentration not given with the values) | actives 0.21% (n = 330,000) | AID 1053175, 2014;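 active means OD600 absorbance below the run mean of sample wells minus 3.6 SD, in any replicate, cut at about 0.56 in these data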;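 further: stock transfer was 300 nL into about 60 µL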
HNF4A DNA FP: change in binding of human HNF4A to DNA, primary screen, biochemical, fluorescence polarization, FITC-DNA. Hepatocyte nuclear factor 4-alpha (Homo sapiens), P41235. 1 h. activity change, % at 10 µM. actives 0.3% (n = 360,000); in the data active means activity change above about 30%, passing the limit was not always enough;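 further: controls were the assay level and a saturating level of protein; the project sought stronger binding though the title names inhibitors; some compounds called inactive have numbers as strong as hits; positive values seem to mean higher polarization but the record does not say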
Target sequence (P41235 whole entry, looked up): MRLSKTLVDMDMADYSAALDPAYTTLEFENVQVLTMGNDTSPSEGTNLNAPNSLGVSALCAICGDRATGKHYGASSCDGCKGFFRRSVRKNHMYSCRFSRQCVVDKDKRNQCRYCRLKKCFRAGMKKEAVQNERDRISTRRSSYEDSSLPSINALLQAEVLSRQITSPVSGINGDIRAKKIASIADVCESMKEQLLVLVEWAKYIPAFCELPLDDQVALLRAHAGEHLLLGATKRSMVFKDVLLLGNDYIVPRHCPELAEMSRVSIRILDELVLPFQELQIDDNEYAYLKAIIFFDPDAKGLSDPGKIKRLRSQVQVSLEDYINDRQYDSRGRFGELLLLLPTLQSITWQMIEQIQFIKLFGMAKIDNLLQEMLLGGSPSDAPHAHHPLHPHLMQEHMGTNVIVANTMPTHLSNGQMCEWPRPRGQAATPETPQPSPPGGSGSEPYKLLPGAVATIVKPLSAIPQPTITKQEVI
Vif TR-FRET: inhibitors of Vif binding to APOBEC3G peptide, primary screen, biochemical, TR-FRET, GST-Vif 1-94, biotin-A3G peptide, dose response retest (AID 1117319). Virion infectivity factor (Human immunodeficiency virus type 1 group M subtype B (isolate …. actives 0.57% (n = 260,000). TR-FRET GST-Vif / biotin-A3G peptide binding; higher % means a stronger effect; test concentration not given here; strong numbers were not always called active. inhibition, %; hits with a dose series show IC50 in µM;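 active means above the screen mean plus three standard deviations and confirmed in dose response; inconclusive means results disagree or hit not tested in dose response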;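 further: Vif residues 1-94 fused to GST binding biotinylated APOBEC3G peptide 110-148; 0% = full assay without inhibitor and 100% = GST in place of GST-Vif; retest series ran down from 100 µM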
rRNA inh HTS OD600: further read-out of rRNA inh HTS, marked with its call; OD600 change, %; measured here: OD600 growth;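 optical density of the mix in the first replicate; 0 = DMSO median and -100 = no signal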
rRNA inh HTS RFP: further read-out of rRNA inh HTS, marked with its call; RFP signal change, %; measured here: RFP humanized mutant strains;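 first replicate; 0 = DMSO median and -100 = no signal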
Starred values were filed as active, the others as inactive; i = inactive; ? = inconclusive; / = not tested or not shown; & = joins results of further samples. A portion of the library; count on the stated rates, not on these rows.

SMILES	rRNA inh HTS	rRNA inh HTS OD600	rRNA inh HTS RFP	ALR inh	FGF22 binding	AF4-AF9 inh	Ecoli growth	HNF4A DNA FP	Vif TR-FRET
C[C@H]1CCCCO[C@H](CN(C)S(=O)(=O)c2ccc(Cl)cc2)[C@@H](C)CN([C@@H](C)CO)C(=O)c2cc(NS(=O)(=O)c3ccc(F)cc3)ccc2O1	-0.8	-0.7	2.0	/	i	-2.2	/	/	/
COc1ccc(-c2n[nH]c(=S)n2-c2ccc(Br)cc2)cc1OC	-13.7	-11.6	2.8	26.1	i	-6.6	0.682	-2.3	/
COC(=O)c1cccc2c1C(=O)c1cc([N+](=O)[O-])ccc1-2	-4.1	4.5	-3.2	/	i	-0.4	/	2.7	-1.0%
COc1ccc(Cc2nnc(NC(=O)c3cccc([N+](=O)[O-])c3)s2)cc1	/	/	/	-26.6	/	/	0.718	0.9	/
O=C(CCN1C(=O)C2C3C=CC(C4CC34)C2C1=O)Nc1ccc(Cl)cc1O (centres undefined)	-6.4	-9.7	-0.8	2.3	i	-3.7	0.619	-1.7	/
CC(=O)Nc1ccc(NC(=O)C(C)OC(=O)CCCc2c[nH]c3ccccc23)cc1 (centres undefined)	0.7	4.3	-1.1	66.6	i	3.7	0.679	-3.4	-3.4%
Cc1ccc(NC(=O)CC(C)CC2=NS(=O)(=O)c3ccccc3N2)cc1 (centres undefined)	-8.9	-19.9	-0.2	-3.8	i	6.4	0.742	0.6	/
CC1CC(c2ccccc2)n2nc(N3C(=O)c4ccccc4C3=O)nc2N1 (centres undefined)	/	/	/	-2.8	/	/	0.762	-1.8	31.3%
O=C(COC(=O)c1ccc2c(c1)OCO2)NC1CCS(=O)(=O)C1 (centres undefined)	/	/	/	-26.8	/	/	0.69	0.7	-4.2%
Cn1c(N)c(C(=O)COC(=O)C2CCCCC2)c(=O)n(C)c1=O	-14.6	-17.2	-7.2	-3.8	i	8.4	0.632	0.3	92.9µM*
Cc1ccc(-c2n[nH]c(=S)n2/N=C/c2c(C)nn(-c3ccccc3)c2C)cc1	/	/	/	4.0	/	/	/	2.6	7.9%
CC(=O)Nc1cccc(OCC(=O)NS(=O)(=O)c2ccc(C)cc2)c1	17.1	8.5	-2.0	0.1	i	1.5	0.636	1.3	12.0%
CCSC1=C(C#N)C2(CCCCC2)C2=C(CC(C)(C)CC2=O)N1	6.7	1.6	-0.1	-2.2	i	-0.8	0.633	0.2	4.7%
Cc1ccc(C)c(N2CCN(C(=O)C3CCCN(S(=O)(=O)c4c(C)noc4C)C3)CC2)c1 (centres undefined)	2.2	-20.5	21.8	-1.7	i	3.7	0.742	-2.6	-2.4%
COc1ccc(NC(=O)C2=C(C)NC(=O)NC2c2ccccc2[N+](=O)[O-])cc1 (centres undefined)	13.7	13.2	4.2	/	i	2.7	0.677	2.0	5.9%
NS(=O)(=O)c1ccc(S(=O)(=O)N2CCCC2)cc1	/	/	/	/	/	/	0.735	-0.6	26.5%
CC(C)C(=O)Nc1ccc2c(c1)C(=O)N(C)[C@H]1CC[C@@H](CC(=O)NCc3ccccc3)O[C@H]1CO2	2.5	1.3	-3.2	/	i	-12.1	/	/	/
C[C@H](CO)N1C[C@H](C)[C@@H](CN(C)C(=O)Nc2ccc(C(F)(F)F)cc2)OCc2cn(nn2)CCCC1=O	-14.0&2.3	-13.4&-1.8	2.6&0.8	/	i	-0.6&0.9&-3.7	/	/	/
N#CCCN(C(=O)COc1ccc(Br)cc1F)c1ccc(F)cc1	-10.7	-13.7	1.7	-8.1	i	-3.9	0.713	-1.7	-1.2%
CCOCC(=O)Nc1cc(C(=O)Nc2cc(C)cc(C)c2)ccc1Cl	/	/	/	-1.4	/	/	0.689	/	28.8%
Cc1ccc(N2C(S)=C(C#N)C(=O)NC2c2ccco2)cc1 (centres undefined)	3.3	8.7	2.0	-18.9	i	-4.5	/	2.3	-7.2%
CCO[C@H]1OC(C(=O)NCc2nc3ccccc3[nH]2)=C[C@@H](c2ccc(C(F)(F)F)cc2)[C@@H]1CCCO	6.4	-0.5	11.7	6.3	i	3.2&2.3	/	-0.8	/
Cc1ccc(S(=O)(=O)N2CCCCC2)cc1NC(=O)c1cncc(Br)c1	-8.6	-7.9	4.7	/	i	-0.1	0.674	3.4	-1.2%
O=C(COC(=O)c1cc(S(=O)(=O)N2CCCCC2)ccc1N1CCOCC1)c1ccc(F)cc1	-10.5	-11.0	-3.1	3.4	i	1.6	0.724	-2.3	-4.9%
Cc1ccc(CN2CCC(C(=O)c3ccc(F)cc3)CC2)cc1	-0.6	9.0	0.1	/	i	1.6	/	-0.1	-6.5%

Continued; the last three above are carried over.
SMILES	rRNA inh HTS	rRNA inh HTS OD600	rRNA inh HTS RFP	ALR inh	FGF22 binding	AF4-AF9 inh	Ecoli growth	HNF4A DNA FP	Vif TR-FRET
Cc1ccc(S(=O)(=O)N2CCCCC2)cc1NC(=O)c1cncc(Br)c1	-8.6	-7.9	4.7	/	i	-0.1	0.674	3.4	-1.2%
O=C(COC(=O)c1cc(S(=O)(=O)N2CCCCC2)ccc1N1CCOCC1)c1ccc(F)cc1	-10.5	-11.0	-3.1	3.4	i	1.6	0.724	-2.3	-4.9%
Cc1ccc(CN2CCC(C(=O)c3ccc(F)cc3)CC2)cc1	-0.6	9.0	0.1	/	i	1.6	/	-0.1	-6.5%
Cc1ccc(N=C2NC(=O)c3cc([N+](=O)[O-])ccc32)cc1	/	/	/	/	/	/	0.675	2.7	6.9%
Cc1cc(NC(=O)c2cccc(N3C(=O)CCC3=O)c2)no1	/	/	/	7.1	/	/	0.688	-1.3	-2.5%
COc1cccc(CN(C(=O)COc2ccc(Cl)cc2)C2CCS(=O)(=O)C2)c1 (centres undefined)	-1.3	-12.4	-2.7	5.3	i	-1.2	0.681	-2.8	/
CC(=O)Nc1ccc(NC(=O)COC(=O)c2ccco2)cc1	14.4	6.2	-2.7	-5.8	i	-1.2	0.69	2.2	/
COC(=O)CNC(=O)C(Cc1ccccc1)NS(=O)(=O)c1ccc2c(c1)c(=O)n(C)c(=O)n2C (centres undefined)	7.2	4.1	-4.0	2.1	i	-3.5	0.642	-1.7	-7.6%
CCN(C(=O)COC(=O)C1CC1C)c1c(N)n(Cc2ccccc2)c(=O)[nH]c1=O (centres undefined)	8.5	5.6	-1.2	/	i	-4.9	0.658	-0.3	4.6%
O=C(COc1cc(O)c2c(=O)cc(-c3ccccc3)oc2c1)c1ccccc1	/	/	/	-2.3	/	/	0.742	-3.2	-6.6%
COc1ccc(NC(=O)Nc2ccc3c(c2)C(=O)N([C@H](C)CO)C[C@@H](C)[C@@H](CN(C)S(=O)(=O)c2ccc(Cl)cc2)O3)cc1	-1.9	-4.8	-0.2	/	i	1.3	/	/	/
Cc1ccc2[nH]c(=O)c3cc(C(=O)NC(C)C)sc3c2c1	-1.4	9.4	-0.4	6.8	i	-2.0	0.656	0.5	-3.5%
CC1=C(C(=O)N(C(C)C)C(C)C)CC(CC(=O)NC2CCCCC2)C(=O)N1Cc1ccc(F)cc1 (centres undefined)	4.8	10.0	-0.2	/	i	-0.1	/	-1.3	/
Cc1csc(N=Cc2ccc([N+](=O)[O-])o2)n1	-6.9	9.3	7.6	/	i	4.6	/	-4.1	17.5%
COCCCNC(=O)CCSc1ccc(Cl)cc1	/	/	/	/	/	/	0.682	1.8	11.4%
Cc1cc(=O)[nH]c(SCC(=O)Nc2ccc(C(=O)O)cc2)n1	2.5	-6.0	-4.2	98.8*	i	-48.2	0.655	-6.2	3.6%
CCc1nnc(NS(=O)(=O)c2ccc(NC(=O)c3ccc([N+](=O)[O-])s3)cc2)s1	-3.0	-0.6	-0.4	/	i	-7.0	/	0.7	4.9%
CSc1nnc(CNS(=O)(=O)c2ccc(Br)cc2)n1C	10.3	9.8	-2.6	-8.3	i	-0.6	0.708	-3.2	/
Cc1noc(C)c1S(=O)(=O)Nc1ccc2c(c1)CC(=O)N([C@H](C)CO)C[C@H](C)[C@@H](CN(C)C(=O)Nc1ccccc1)O2	3.4	3.5	-0.9	/	i	-2.5	/	/	/
COc1ccc(OCCNc2cc(N3CCOCC3)ccc2[N+](=O)[O-])cc1	/	/	/	3.5	/	/	0.709	0.0	19.5%
O=[N+]([O-])c1ccc(OCCn2cncn2)cc1	8.8	5.3	-1.7	-0.7	i	-1.7	0.657	2.0	/
COc1cccc(NC(=O)COC(=O)c2sccc2C)c1	-20.9*	-21.5*	0.1*	/	i	-4.9	0.687	3.7	0.2%
CN1C(=O)c2cc(NC(=O)C3CCCCC3)ccc2OC[C@@H]2O[C@@H](CC(=O)NCc3ccccc3F)CC[C@@H]21	-3.5	-7.6	-0.6	/	i	-0.7	/	/	/
COC(=O)COc1ccc(S(=O)(=O)NCCC2=CCCCC2)cc1	/	/	/	-6.8	/	/	0.696	2.5	5.6%
Cn1nnnc1SCC(=O)Nc1c(Cl)cccc1Cl	/	/	/	-5.2	/	/	0.729	0.4	-1.4%
CCOC(=O)c1c(NC(=O)CSc2nnc(-c3c[nH]c4ccccc34)n2C)sc2c1CCCC2	3.0	7.4	11.8	/	i	5.5	0.78	-3.0	?
CCc1cc(C(=O)NNC(=O)c2csc(N3CCOCC3)n2)sc1C	3.9	-2.3	4.1	/	i	3.7	0.699	5.1	13.5%
O=S(=O)(c1ccc2nnn(O)c2c1)N1CCCCC1	-0.7	-1.9	-3.0	2.3	i	0.8	0.725	-1.3	5.3%
The list continues:
SMILES	rRNA inh HTS	rRNA inh HTS OD600	rRNA inh HTS RFP	ALR inh	FGF22 binding	AF4-AF9 inh	Ecoli growth	HNF4A DNA FP	Vif TR-FRET
COc1ccc(OC)c(S(=O)(=O)N2CCN(c3c(C)cccc3C)CC2)c1	-0.9	-7.8	-4.9	-8.8	i	5.3	0.755	-1.8	6.5%
O=C(CCc1nc2ccccc2c(=O)[nH]1)NNC(=O)COc1ccccc1Cl	12.2	17.5	3.9	-5.7	i	-1.1	0.624	-0.4	-2.2%
C[C@H](NC(=O)OC(C)(C)C)C(=O)N/N=C/c1cccc2nccnc12	6.9	10.7	0.7	-0.8	i	0.5	/	1.0	29.9%
CN1C(=O)C(=O)/C(=C(/O)c2ccc(Br)cc2)C1c1ccccc1F (centres undefined)	-1.7	-1.5	1.4	-16.2	i	-2.5	0.714	0.7	-2.1%
Cc1cc(C)cc(-n2ncc3c2CCCC3NC(=O)c2cc(C)n(C)n2)c1 (centres undefined)	-3.1	-10.1	-2.0	83.6*	i	3.7	0.718	-0.1	/
COc1ccc(/C=N/NC(=O)c2cc(-c3ccccc3OC)nc3ccccc23)cc1COC(C)=O	/	/	/	-3.3	/	/	/	1.7	-2.1%
COc1ccc(S(=O)(=O)N(C)CC(=O)Nc2ccccc2SC)cc1	/	/	/	-5.6	/	/	0.732	-0.1	3.5%
NC(=O)C1CCCc2c1n(Cc1ccccc1)c1ccccc21 (centres undefined)	-7.8	-19.1	1.8	-0.7	i	2.0	0.661	3.6	-14.2%
Cc1cc(NC(=O)CSc2nnnn2-c2cc(Cl)ccc2C)no1	-2.8	-13.1	1.2	-0.5	i	-2.9	0.679	1.2	/
